Assay outcomes as filed in PubChem.
Methyltransferases – Primary Screen for Target Class Profiling of Small Molecule Inhibitors of Methyltransferases; 3.9% of 25,000 active; calls only at 40 µM; purified enzyme, MTase-Glo SAH luminescence; hits give low values; active = -50% or lower on at least one of six enzymes; inconclusive = the cases between; inactive = as a rule above -30% on all six;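 further: enzymes were COMT GAMT GNMT HNMT NNMT and PNMT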
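Each enzyme was assayed with SAM and its substrate. SAH formation detected by MTase-Glo luminescence; single-point 40 uM screen[…].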
Calls only. On the % scale 0 is the no-effect control and ±100 the full control effect. The list is partial; count on the stated rates, not on these rows.

Screening CC(C)(O)/C=C/C(=O)[C@](C)(O)[C@H]1[C@H](O)C[C@@]2(C)[C@@H]3CC=C4[C@@H](C[C@H](O)C(=O)C4(C)C)[C@]3(C)C(=O)C[C@]12C returned Methyltransferases inactive.
For COC1CC(OC2CCC3(C)C(=CCC4C3CCC3(C)C(C(C)OC5OC(COC6OC(CO)C(O)C(O)C6O)C(O)C(O)C5O)CCC43O)C2)OC(C)C1OC1OC(C)C(O)C(OC)C1O (stereo not given) the results were Methyltransferases inactive.
OC(CNc1ccccc1)Cn1c2ccc(Br)cc2c2cc(Br)ccc21 (stereo not given) was read as Methyltransferases inconclusive.
`NC(=O)c1ncn2c1CN=C(c1ccccc1Br)c1cc(F)ccc1-2` gave Methyltransferases inactive.
Screening CSc1ccc(C2c3cccn3-c3ccccc3CN2C(=O)Nc2cc(C)cc(C)c2)cc1 (stereo not given) returned Methyltransferases inactive.
`Cc1ncc2c(n1)C[C@@H]1CC[C@H]2N1C(=O)C1(c2ccccc2)CC1` gave Methyltransferases inactive.
Screening C[C@@H]1CC[C@H]2[C@@H](C)C(=O)O[C@@H]3O[C@@]4(C)CC[C@@H]1[C@]32OO4 returned Methyltransferases inconclusive.
For COc1ccc(C2c3cccn3-c3ccccc3CN2C(=O)Nc2ccccc2C)cc1OC (stereo not given) the results were Methyltransferases inactive.
Screening CCCCCOc1cc2c(cc1-c1cc(/C=C/C(=O)O)ccc1O)C(C)(C)CCC2(C)C returned Methyltransferases active.
Screening CC1(C)C(=O)N(c2ccc(C#N)c(C(F)(F)F)c2)C(=O)N1CCCCO returned Methyltransferases inactive.
Screening O=C(Nc1ccc2c(c1)OCCO2)N1Cc2ccccc2-n2cccc2C1c1ccccc1Cl (stereo not given) returned Methyltransferases inactive.
CSc1cccc(NC(=O)N2Cc3ccccc3-n3cccc3C2c2cccs2)c1 (stereo not given) was read as Methyltransferases inactive.
Screening CCOc1ccc(C2c3cccn3-c3ccccc3CN2C(=O)Nc2ccccc2F)cc1 (stereo not given) returned Methyltransferases inactive.
CC(=O)[C@H]1CCC2C3CC[C@H]4C[C@H](O)CC[C@]4(C)C3CC[C@@]21C (stereo not given in full) was read as Methyltransferases inactive.
COc1ccc(C2c3cccn3-c3ccccc3CN2C(=O)Nc2cc(OC)cc(OC)c2)cc1 (stereo not given) was read as Methyltransferases inactive.
For COc1ccn(C)c(=O)c1C#N the results were Methyltransferases inconclusive.
For CC1c2cccn2-c2ccccc2CN1C(=O)Nc1cccc(Br)c1 (stereo not given) the results were Methyltransferases inactive.
For Cc1cc(C[C@@H]2COC[C@@H]2NC(=O)c2cn(C)c3ccccc23)on1 the results were Methyltransferases inactive.
Screening CC[C@@H](C)[C@H]1C(=O)O[C@H](C(C)C)C(=O)N(C)[C@@H]([C@@H](C)CC)C(=O)O[C@H](C(C)C)C(=O)N(C)[C@@H]([C@H](C)CC)C(=O)O[C@H](C(C)C)C(=O)N1C returned Methyltransferases inactive.
For COc1ccc(C2c3cccn3-c3ccccc3CN2C(=O)Nc2ccc(F)cc2F)cc1OC (stereo not given) the results were Methyltransferases inactive.

Some of these compounds in order of molecular weight, highest first:
For COC1CC(OC2CCC3(C)C(=CCC4C3CCC3(C)C(C(C)OC5OC(COC6OC(CO)C(O)C(O)C6O)C(O)C(O)C5O)CCC43O)C2)OC(C)C1OC1OC(C)C(O)C(OC)C1O (stereo not given) the results were Methyltransferases inactive.
Screening CC[C@@H](C)[C@H]1C(=O)O[C@H](C(C)C)C(=O)N(C)[C@@H]([C@@H](C)CC)C(=O)O[C@H](C(C)C)C(=O)N(C)[C@@H]([C@H](C)CC)C(=O)O[C@H](C(C)C)C(=O)N1C returned Methyltransferases inactive.
Screening CC(C)(O)/C=C/C(=O)[C@](C)(O)[C@H]1[C@H](O)C[C@@]2(C)[C@@H]3CC=C4[C@@H](C[C@H](O)C(=O)C4(C)C)[C@]3(C)C(=O)C[C@]12C returned Methyltransferases inactive.
For COc1ccc(C2c3cccn3-c3ccccc3CN2C(=O)Nc2ccc(F)cc2F)cc1OC (stereo not given) the results were Methyltransferases inactive.
OC(CNc1ccccc1)Cn1c2ccc(Br)cc2c2cc(Br)ccc21 (stereo not given) was read as Methyltransferases inconclusive.
Screening O=C(Nc1ccc2c(c1)OCCO2)N1Cc2ccccc2-n2cccc2C1c1ccccc1Cl (stereo not given) returned Methyltransferases inactive.
COc1ccc(C2c3cccn3-c3ccccc3CN2C(=O)Nc2cc(OC)cc(OC)c2)cc1 (stereo not given) was read as Methyltransferases inactive.
Screening CSc1ccc(C2c3cccn3-c3ccccc3CN2C(=O)Nc2cc(C)cc(C)c2)cc1 (stereo not given) returned Methyltransferases inactive.
Screening CCOc1ccc(C2c3cccn3-c3ccccc3CN2C(=O)Nc2ccccc2F)cc1 (stereo not given) returned Methyltransferases inactive.
Screening CCCCCOc1cc2c(cc1-c1cc(/C=C/C(=O)O)ccc1O)C(C)(C)CCC2(C)C returned Methyltransferases active.
CSc1cccc(NC(=O)N2Cc3ccccc3-n3cccc3C2c2cccs2)c1 (stereo not given) was read as Methyltransferases inactive.
`NC(=O)c1ncn2c1CN=C(c1ccccc1Br)c1cc(F)ccc1-2` gave Methyltransferases inactive.
Screening CC1(C)C(=O)N(c2ccc(C#N)c(C(F)(F)F)c2)C(=O)N1CCCCO returned Methyltransferases inactive.
For Cc1cc(C[C@@H]2COC[C@@H]2NC(=O)c2cn(C)c3ccccc23)on1 the results were Methyltransferases inactive.
CC(=O)[C@H]1CCC2C3CC[C@H]4C[C@H](O)CC[C@]4(C)C3CC[C@@]21C (stereo not given in full) was read as Methyltransferases inactive.
For COc1ccn(C)c(=O)c1C#N the results were Methyltransferases inconclusive.

Other compounds follow:
CCOc1ccccc1NC(=O)N1Cc2ccccc2-n2cccc2C1c1ccc(F)cc1 (stereo not given) was read as Methyltransferases inactive.
Screening CCC1c2cccn2-c2ccccc2CN1C(=O)Nc1ccccc1Cl (stereo not given) returned Methyltransferases inactive.
`O=C(NCc1ccccc1)N1Cc2ccccc2-n2cccc2C1c1ccc(F)cc1` (stereo not given) gave Methyltransferases inactive.
O=C(Nc1ccccc1)N1Cc2ccccc2-n2cccc2C1c1cc(F)cc(F)c1 (stereo not given) was read as Methyltransferases inactive.
C/C(=C\c1csc(C)n1)[C@@H]1C[C@@H]2O[C@@H]2CCC[C@H](C)[C@H](O)[C@@H](C)C(=O)C(C)(C)[C@@H](O)CC(=O)O1 was read as Methyltransferases inactive.
Screening O=C(Nc1ccccc1)N1Cc2ccccc2-n2cccc2C1c1ccc(F)cc1 (stereo not given) returned Methyltransferases inactive.
Screening CN1CCc2cc3c(cc2[C@H]1[C@@H]1OC(=O)c2c1ccc1c2OCO1)OCO3 returned Methyltransferases inactive.
Screening CC(=O)O[C@H]1CC[C@@]2(CI)C(=CC[C@@H]3[C@@H]2CC[C@]2(C)C(=O)CC[C@@H]32)C1 returned Methyltransferases inactive.
Screening Cc1cccc(NC(=O)N[C@H]2CN(C)c3ccccc3C(c3ccccc3)=N2)c1 returned Methyltransferases inconclusive.
COc1cc2c(cc1Oc1ccccc1)NC(=O)C21CCN(c2nc(C)cnc2C)CC1 was read as Methyltransferases inactive.
COc1ccc(C2c3cccn3-c3ccccc3CN2C(=O)Nc2cc(C)ccc2OC)cc1 (stereo not given) was read as Methyltransferases inactive.
Screening CC1CCN(CC2CCCCCN2C(=O)Cc2ccccc2)CC1 (stereo not given) returned Methyltransferases inactive.
For O=C(Nc1cc(F)ccc1F)N1Cc2ccccc2-n2cccc2C1c1cc(F)cc(F)c1 (stereo not given) the results were Methyltransferases inactive.
CC(=O)OCC1=C(C(=O)O)N2C(=O)[C@@H](N)[C@H]2SC1 was read as Methyltransferases inactive.
For Cc1cc(C)cc(NC(=O)N2Cc3ccccc3-n3cccc3C2c2cccc(C)c2)c1 (stereo not given) the results were Methyltransferases inactive.
Screening COc1ccc(NC(=O)N2Cc3ccccc3-n3cccc3C2c2ccccc2)cc1OC (stereo not given) returned Methyltransferases inactive.
For COc1cc(NC(=O)N2Cc3ccccc3-n3cccc3C2c2cccs2)cc(OC)c1 (stereo not given) the results were Methyltransferases inactive.
`CCOC(=O)CNC(=O)N1Cc2ccccc2-n2cccc2C1c1ccc(C)cc1` (stereo not given) gave Methyltransferases inactive.
Screening Cc1sc2c(c1C)C(c1ccc(Cl)cc1)=N[C@@H](CC(N)=O)c1nnc(C)n1-2 returned Methyltransferases inconclusive.
